ID4 SMM: ID4 (human) binding; P47928; small molecule microarray, Flag-ID4 binding, fluorescence F/B; calls only; actives 1.2% (n = 31,000); AID 624137;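 active means spot signal over background at p below 0.07 in all four prints; compounds were printed on slides so no solution concentration is given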;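 further: a binder raises fluorescence above local background on the spot; about 2 pmol printed per array spot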
Calls only; i = inactive. A portion of the library. The share of hits here may be higher or lower than overall.

molecule | ID4 SMM
Cc1coc2c1C(=O)C(=O)c1c-2ccc2c1CCCC2(C)C | i
CN1CCC(=C2c3ccccc3CCc3sccc32)CC1 | i
CC(C)Cc1ccc(C(C)C(=O)O)cc1 (configuration not stated) | i
CC1=NN(c2ccccc2)C(=O)C1 | i
CC(C)Cc1ccc([C@H](C)C(=O)O)cc1 | i
O=C(O)CN1C(=O)c2cccc3cccc(c23)C1=O | i
O=C(O)[C@@H]1[C@H]2C[C@H]3c4[nH]c5ccccc5c4CCN3C[C@@H]2CC[C@@H]1O | i
Cc1ccc(Cl)cc1N(CC(=O)Nc1c(F)cccc1F)S(C)(=O)=O | i
CCOC(=O)c1ccc2nc(C(F)(F)F)nc(NCc3ccc(Cl)cc3)c2c1 | i

In a second layout: results already given.
> CC(C)Cc1ccc(C(C)C(=O)O)cc1 (configuration not stated)
  ID4 SMM: i

> CC1=NN(c2ccccc2)C(=O)C1
  ID4 SMM: i

> O=C(O)[C@@H]1[C@H]2C[C@H]3c4[nH]c5ccccc5c4CCN3C[C@@H]2CC[C@@H]1O
  ID4 SMM: i

> Cc1ccc(Cl)cc1N(CC(=O)Nc1c(F)cccc1F)S(C)(=O)=O
  ID4 SMM: i
